PKD1 kinase inh – inhibitors of human PKD1 kinase, biochemical, fluorescence polarization; PKD1 kinase fluorescence polarization assay; inhibition, %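 (about 10 µM by stock and volumes)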; 200,000 tested, 0.056% active; AID 797, 2007;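 active means inhibition of 50% or more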;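 further: controls were vehicle for no effect and a reference inhibitor for full effect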
HSV replic up – enhancers of HSV replication in host cells, fold increase, host cell viability; HSV replication augmentation in cells; maximum fold increase; 220,000 tested, 0.005% active; AID 1956, 2009;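 active means peak rise of 1.5-fold or more in the series; tested in PC3 cells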;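 further: first round at 10 µM; read as green reporter fluorescence; hits show the peak of a series up to 25 µM; 1 = signal of infected wells without compound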
GALR2 agonist – GALR2 receptor agonists, primary screen, cell-based; activation, %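 (tested at 5 µM)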; 140,000 tested, 0.48% active; Galanin receptor type 2 (Homo sapiens), O43603; GALR2-expressing cells, agonist activation read-out; AID 803, 2007;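 active means above mean plus 3 SD of all compounds, about 5% in these data, not always enough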;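 further: 0% = vehicle buffer wells and 100% = reference agonist at full effect; tested in CHO reporter cells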
Target sequence (O43603 whole entry, looked up): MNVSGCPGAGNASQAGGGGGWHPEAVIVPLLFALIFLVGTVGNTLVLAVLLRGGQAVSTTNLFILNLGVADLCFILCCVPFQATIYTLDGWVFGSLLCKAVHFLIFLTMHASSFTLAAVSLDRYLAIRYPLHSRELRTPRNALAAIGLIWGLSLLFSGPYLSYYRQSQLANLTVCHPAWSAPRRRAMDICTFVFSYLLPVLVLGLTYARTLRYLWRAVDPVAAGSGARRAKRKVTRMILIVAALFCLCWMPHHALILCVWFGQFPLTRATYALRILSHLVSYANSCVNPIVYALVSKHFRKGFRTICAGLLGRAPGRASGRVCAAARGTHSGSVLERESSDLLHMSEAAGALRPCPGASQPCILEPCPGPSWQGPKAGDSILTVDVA
Insulin prom inh – inhibitors of insulin promoter-driven GFP, primary screen, imaging, TRM-6 cells (human fetal islet line), eGFP reporter, cell count; reporter expression induced with tamoxifen; inhibition, % at 2 µM; 130,000 tested, 0.9% active;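 active means inhibition above the mean plus 3 SD, with well images judged a real hit on visual review, cut at about 60% in these data, passing the limit was not always enough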
RGS16-Gao HTS – modulators of RGS16 binding to Galphao, primary screen, biochemical, human proteins, multiplexed bead flow cytometry; Regulator of G-protein signaling 16 (Homo sapiens) + Guanine nucleotide-binding protein …; bead-based flow cytometry RGS16-Galphao binding, fluorescence; actives lie on both sides; binding response (% of control), % at 10 µM; 220,000 tested, 0.38% active; AID 1441, 2008;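 active means below 25% or above 175%, edge rows of some plates excepted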;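 further: Galphao activated by GDP with aluminum fluoride before binding; 100% = wells without compound and 0% = beads without RGS; some results beyond the cut were filed as inactive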
Target sequence (O15492 whole entry, looked up): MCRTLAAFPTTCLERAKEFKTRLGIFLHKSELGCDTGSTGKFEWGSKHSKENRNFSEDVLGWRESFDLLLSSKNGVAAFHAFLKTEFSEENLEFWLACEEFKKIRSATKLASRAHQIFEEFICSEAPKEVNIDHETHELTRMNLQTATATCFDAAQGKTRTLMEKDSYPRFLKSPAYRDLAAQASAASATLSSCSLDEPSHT
Target sequence (P09471 whole entry, looked up): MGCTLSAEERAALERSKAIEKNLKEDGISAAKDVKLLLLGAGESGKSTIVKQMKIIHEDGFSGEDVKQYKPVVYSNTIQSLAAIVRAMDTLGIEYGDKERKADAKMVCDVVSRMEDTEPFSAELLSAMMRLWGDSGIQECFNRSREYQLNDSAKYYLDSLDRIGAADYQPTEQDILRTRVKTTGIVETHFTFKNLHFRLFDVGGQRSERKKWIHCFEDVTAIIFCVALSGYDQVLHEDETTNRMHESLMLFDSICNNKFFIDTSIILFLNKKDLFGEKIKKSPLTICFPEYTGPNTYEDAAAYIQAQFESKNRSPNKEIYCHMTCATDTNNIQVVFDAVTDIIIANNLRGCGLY
Insulin prom inh cell count – recorded beside Insulin prom inh, whose call it bears; normalized cell count, %; measured here: cell count, toxicity; reference of the scale not given here;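 cells exposed to compound for 48 h; stained nuclei by imaging scaled within each plate; lower means fewer cells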
HSV replic up primary fold – also measured in HSV replic up; calls as there; fold increase; compound at 10 µM; measured here: primary screen fold increase 10 uM; tested in PC3 cells;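 GFP signal in the first replicate; 1 = infected wells without compound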
Active calls of the source: *; i = inactive; nt = not tested or not shown.

Each structure is followed by: GALR2 agonist	HSV replic up primary fold	RGS16-Gao HTS	HSV replic up	PKD1 kinase inh	Insulin prom inh	Insulin prom inh cell count
1	CC(C)c1ccc(NC(=O)C(c2ccccc2)N2CC(=O)Nc3ccccc32)cc1 (configuration not stated)
    0.9	nt	nt	nt	9	-5	93
2	Nc1cccc(Oc2c(F)c(F)c(Oc3cccc(N)c3)c(F)c2F)c1
    nt	1	96	i	nt	nt	nt
3	CCCCN1C(=O)N(C)C2C1N(C)C(=O)N2CCCC (configuration not stated)
    -2.6	0.96	124	i	-3	38	90
4	COc1ccc(C2/C=C\CN(C(=O)Oc3ccccc3)CC(=O)N2Cc2ccc(F)cc2)cc1 (configuration not stated)
    nt	0.91	97	i	nt	nt	nt
5	CCOC(=O)c1c(-c2ccc(C)s2)csc1N
    nt	1.3	97	i	1	18	85
6	O=c1c2cc(Br)ccc2nc(-c2ccc([N+](=O)[O-])cc2)n1O
    nt	1	84	i	-5	-13	135
7	Cc1cccc(OCC(=O)Nc2cccc(C(=O)Nc3ccccc3C(=O)O)c2)c1
    0.2	1	92	i	1	-38	114
8	Cc1ccc(C)c(-c2csc(NC(=O)c3cnccn3)n2)c1
    nt	1	99	i	6	18	95
9	COc1ccc(CCNC2CC(=O)N(CCc3ccccc3)C2=O)cc1OC (configuration not stated)
    -0.3	0.72	nt	i	-6	nt	nt
10	CCCCN(C(=O)/C=C/c1ccc(OCC(C)C)c(OCC)c1)c1c(N)n(CCC)c(=O)[nH]c1=O
    nt	0.9	95	i	-7	nt	nt
11	C[C@@H](NC(=O)c1coc(=O)c(Br)c1)c1ccccc1
    -0.3	0.74	99	i	-4	31	52
12	CC(C)CNS(=O)(=O)c1cc(C(=O)O)c(Cl)cc1Cl
    nt	1	96	i	nt	nt	nt
13	Cc1ccc(NC(=O)C2CC(=O)n3c(nc4ccccc43)N2)cc1Cl (configuration not stated)
    nt	0.87	99	i	-8	73*	97*
14	CCOC(=O)N1CCN(c2cccc(C)c2C)CC1
    -1.5	1	100	i	-11	19	104
15	CCCCOc1[nH]c2nc(-c3ccco3)n(Cc3ccco3)c(=N)c2c1C#N
    1.1	nt	97	nt	-12	nt	nt
16	COC(=O)c1ccc(C(=O)OC)c(NC(=O)CSCC(=O)O)c1
    nt	1.1	96	i	nt	nt	nt
17	CCOc1ccc2nc(N/C(N)=N/C(=S)Nc3cccc(C)c3)nc(C)c2c1
    -2.4	0.73	105	i	1	nt	nt
18	Cc1c(CN(C)C(=O)c2ccc(Br)o2)cnn1C
    -0.2	0.83	94	i	-4	-271	63
19	CCN(CC)CCOC(=O)c1ccc(N/C=C(/C#N)c2nc(-c3cccc(OC)c3)cs2)cc1
    nt	0.94	101	i	nt	nt	nt
20	CC(C)C(=O)Nc1cccc(NC(=O)CCN2C(=O)c3ccccc3S2(=O)=O)c1
    -0.3	0.81	108	i	-2	-55	90
21	C(#CCN1CCOCC1)COCCCOC(c1ccccc1)c1ccccc1
    -1.1	0.79	97	i	1	-8	145
22	O=C(CSCc1nc2ccccc2[nH]1)Nc1ccccc1
    -3.3	0.7	97	i	14	3	148
23	Brc1ccc(Sc2cnc3ccccc3n2)cc1
    -0.5	0.95	97	i	7	-4	103
24	NS(=O)(=O)c1ccc(NC(=O)COC(=O)C2CCCCC2)cc1
    nt	0.87	98	i	-7	nt	nt
25	CC1=CC(=O)N(c2cccc(C(F)(F)F)c2)C1c1ccc(Cl)cc1 (configuration not stated)
    -1.8	0.98	103	i	3	14	77
26	COCCCNC(=O)c1c[nH]c2ccc(S(=O)(=O)N3CCc4ccccc43)cc2c1=O
    nt	0.89	100	i	-3	nt	nt
27	CCOC(=O)Cc1csc(NC(=O)CSc2nnnn2-c2ccc(CC)cc2)n1
    -2.4	1	105	i	5	6	98
28	CC(O)c1nc2ccccc2n1C1CCCCC1 (configuration not stated)
    -2.4	0.93	107	i	-5	30	89
29	COc1ccc(NC(=O)c2ccc(NC(=O)CN(C)CC(=O)Nc3c(C)cccc3C)cc2)cc1
    nt	0.92	84	i	nt	nt	nt
30	CCN(CC)c1ccc2c(Cl)c(Br)c(=O)oc2c1
    0.1	nt	99	nt	-11	-133	108
31	COc1ccccc1N1CCN(C(=O)c2cccc3c(=O)c(C)c(-c4ccccc4)oc23)CC1
    -0.3	0.89	113	i	-3	-32	64
32	CCc1ccc(C(=O)N2CCCC2)s1
    -1.3	0.8	104	i	-6	-18	131
33	O=C1CC[C@@H](C(=O)N2CSC[C@H]2C(=O)O)N1
    nt	0.95	96	i	nt	nt	nt
34	COc1ccc(CC(=O)Nc2c3c(nn2-c2cccc(C)c2C)CS(=O)(=O)C3)cc1
    0.7	1	107	i	6	-45	173
35	Cc1ccc(/C=N\NC(=O)c2cc([N+](=O)[O-])cc([N+](=O)[O-])c2)o1
    -0.5	0.88	106	i	-3	nt	nt
36	COC(=O)c1ccc(COc2cccc3c2CCN(Cc2cccc(C)c2)C3=O)o1
    -0.8	nt	104	nt	-2	nt	nt
37	O=[N+]([O-])c1ccc(N/N=C/c2cn(Cc3ccc(F)cc3)c3ccccc23)nc1
    -0.8	nt	108	nt	1	nt	nt
38	Cc1ccccc1OCC(=O)Nc1nnc(C2CCCCC2)s1
    nt	1	100	i	nt	nt	nt
39	C=CCNC(=S)Nc1cccc(NC(=S)NCC=C)c1
    -1.1	1	101	i	2	-10	114
40	O=c1[nH][nH]c(-c2ccccc2O)c1C(C[N+](=O)[O-])c1ccc(Br)cc1 (configuration not stated)
    -1.8	0.81	55	i	-3	46	142
41	COc1ccc(/C=C(/C#N)c2cccnc2)cc1OC
    2.0	0.89	103	i	0	-29	112
42	Cc1ccc2cc(C(c3nnnn3C3CCCC3)N3CCN(c4ccccc4)CC3)c(=O)[nH]c2c1 (configuration not stated)
    2.5	0.75	103	i	-4	-100	34
43	Cc1nc2c(-c3ccc(F)cc3)c(C)nn2c(C)c1CCC(=O)NCc1ccco1
    -0.1	0.84	103	i	-7	nt	nt
44	COc1ccccc1N1CCN(C(c2ccccn2)c2nnnn2C2CCCCC2)CC1 (configuration not stated)
    -1.6	0.98	109	i	-7	57	74
45	CCn1c(COc2ccccc2)nc2ccccc21
    -1.4	0.92	97	i	10	67	91
46	Cc1ccc(C(=O)OCC(=O)Nc2ncc(Cl)cc2Cl)cc1NC(=O)c1ccco1
    -1.2	0.89	95	i	4	-7	84
47	C=CCNC(=O)C1CCN(S(=O)(=O)c2ccc(Br)cc2)CC1
    -3.2	0.97	100	i	19	nt	nt
48	Cc1cc(C)c2nc(SCCC#N)nc(C)c2c1
    -2.9	0.96	104	i	1	nt	nt
49	Cn1cc(Cl)c(C(=O)NC2CCCCCC2)n1
    0.4	0.82	101	i	-14	12	155
50	CCC(C)NC(=O)c1ccc(C(=O)c2ccccc2)cc1 (configuration not stated)
    nt	0.93	102	i	0	42	193
51	COc1ccc(N2CCN(c3nc(Cl)nc(Nc4ccc(F)cc4)n3)CC2)cc1
    -0.9	1.1	107	i	-12	nt	nt
52	CC(=O)N1CCc2ccc(S(=O)(=O)Nc3ccccc3Cl)cc21
    nt	0.99	103	i	4	35	109
53	CCC(=O)N(C1=C(NC)C(=O)c2ccccc2C1=O)C(C)C
    nt	0.66	105	i	0	nt	nt
54	CCCOc1ccc(N2C(=O)CC(N3CCC(c4nc5ccccc5o4)CC3)C2=O)cc1 (configuration not stated)
    nt	1	97	i	-5	30	114
55	COC(=O)C1=C(C)N(Cc2cccnc2)C(=O)/C1=C\c1cccs1
    nt	0.83	100	i	-5	nt	nt
56	NC(=O)/C(=N\OC(=O)c1ccco1)c1nc(-c2ccc(Br)cc2)cs1
    -18	1.2	88	i	-8	24	86
57	CC1CCc2c(C(=O)Nc3ccc(OC(F)(F)F)cc3)csc2C1 (configuration not stated)
    -0.4	nt	108	nt	-1	nt	nt
58	COc1ccc(C(=O)C2=NN(C(C)=O)CC2c2ccco2)cc1 (configuration not stated)
    nt	nt	103	nt	-12	-54	72
59	Cc1ccc(NC(=O)c2ccccc2OCc2ccc([N+](=O)[O-])cc2)nc1
    nt	0.94	100	i	4	nt	nt
60	FC(F)(F)c1cc(-c2ccccc2)nc(NCC2CCCO2)n1 (configuration not stated)
    -1.4	0.84	92	i	-6	13	113

Other results:
Each structure is followed by: GALR2 agonist	HSV replic up primary fold	RGS16-Gao HTS	HSV replic up	PKD1 kinase inh	Insulin prom inh	Insulin prom inh cell count
61	CCn1c(SCC(=O)OC)nnc1-c1ccncc1
    -2.0	0.88	18	i	-4	50	123
62	COc1ccc(OCC(=O)c2c[nH]c3ccccc23)cc1
    nt	0.99	101	i	1	19	154
63	COC(=O)c1ccccc1NC(=O)NC1CCCC1
    nt	1	102	i	-4	nt	nt
64	COc1ccc(CC(=O)Nc2cccc(-c3nnc(-c4ccco4)o3)c2)cc1
    -0.8	nt	70	nt	-12	nt	nt
65	O/N=C/c1cc(Br)cs1
    nt	1	99	i	nt	nt	nt
66	O=[N+]([O-])c1cccc(C=Nc2cc3c(cc2Br)OCCO3)c1
    -0.3	1	103	i	-12	-22	68
67	NC(=S)c1cc2ccc(O)cc2oc1=O
    14*	nt	96	nt	2	-4	128
68	Cc1nn(-c2ccccc2)c2c1C(=O)NC(=O)C(C)(C)C2
    -1.8	0.84	97	i	0	45	85
69	COc1ccccc1Nc1nc(-c2ccc([N+](=O)[O-])cc2)nc2ccccc12
    -3.3	1	nt	i	3	7	112
70	OC1CCN(c2c3c(nc4cc(-c5cccc(F)c5)nn24)CCCC3)CC1
    0.0	1.1	109	i	-9	nt	nt
71	COc1nc(N2CCCC2)nc(-n2nnc(C(C)=O)c2C)n1
    nt	0.95	97	i	-2	20	93
72	CCOC(=O)N1CCN(c2cc(N3CCN(CC)CC3)c(F)cc2[N+](=O)[O-])CC1C (configuration not stated)
    -2.1	0.59	99	i	-1	30	119

Part of the list above in order of molar mass, descending:
Each structure is followed by: GALR2 agonist	HSV replic up primary fold	RGS16-Gao HTS	HSV replic up	PKD1 kinase inh	Insulin prom inh	Insulin prom inh cell count
10	CCCCN(C(=O)/C=C/c1ccc(OCC(C)C)c(OCC)c1)c1c(N)n(CCC)c(=O)[nH]c1=O
    nt	0.9	95	i	-7	nt	nt
42	Cc1ccc2cc(C(c3nnnn3C3CCCC3)N3CCN(c4ccccc4)CC3)c(=O)[nH]c2c1 (configuration not stated)
    2.5	0.75	103	i	-4	-100	34
4	COc1ccc(C2/C=C\CN(C(=O)Oc3ccccc3)CC(=O)N2Cc2ccc(F)cc2)cc1 (configuration not stated)
    nt	0.91	97	i	nt	nt	nt
46	Cc1ccc(C(=O)OCC(=O)Nc2ncc(Cl)cc2Cl)cc1NC(=O)c1ccco1
    -1.2	0.89	95	i	4	-7	84
34	COc1ccc(CC(=O)Nc2c3c(nn2-c2cccc(C)c2C)CS(=O)(=O)C3)cc1
    0.7	1	107	i	6	-45	173
20	CC(C)C(=O)Nc1cccc(NC(=O)CCN2C(=O)c3ccccc3S2(=O)=O)c1
    -0.3	0.81	108	i	-2	-55	90
1	CC(C)c1ccc(NC(=O)C(c2ccccc2)N2CC(=O)Nc3ccccc32)cc1 (configuration not stated)
    0.9	nt	nt	nt	9	-5	93
37	O=[N+]([O-])c1ccc(N/N=C/c2cn(Cc3ccc(F)cc3)c3ccccc23)nc1
    -0.8	nt	108	nt	1	nt	nt
64	COc1ccc(CC(=O)Nc2cccc(-c3nnc(-c4ccco4)o3)c2)cc1
    -0.8	nt	70	nt	-12	nt	nt
70	OC1CCN(c2c3c(nc4cc(-c5cccc(F)c5)nn24)CCCC3)CC1
    0.0	1.1	109	i	-9	nt	nt
66	O=[N+]([O-])c1cccc(C=Nc2cc3c(cc2Br)OCCO3)c1
    -0.3	1	103	i	-12	-22	68
13	Cc1ccc(NC(=O)C2CC(=O)n3c(nc4ccccc43)N2)cc1Cl (configuration not stated)
    nt	0.87	99	i	-8	73*	97*
23	Brc1ccc(Sc2cnc3ccccc3n2)cc1
    -0.5	0.95	97	i	7	-4	103
39	C=CCNC(=S)Nc1cccc(NC(=S)NCC=C)c1
    -1.1	1	101	i	2	-10	114
22	O=C(CSCc1nc2ccccc2[nH]1)Nc1ccccc1
    -3.3	0.7	97	i	14	3	148
62	COc1ccc(OCC(=O)c2c[nH]c3ccccc23)cc1
    nt	0.99	101	i	1	19	154
28	CC(O)c1nc2ccccc2n1C1CCCCC1 (configuration not stated)
    -2.4	0.93	107	i	-5	30	89
67	NC(=S)c1cc2ccc(O)cc2oc1=O
    14*	nt	96	nt	2	-4	128
